Assay outcomes deposited in PubChem BioAssay by National Center for Advancing Translational Sciences (NCATS).
D2 agonist: Beta-Arrestin HTS for Positive Allosteric Modulators of the Human D2 Dopamine Receptor: Agonists. D(2) dopamine receptor (Homo sapiens), P14416. DiscoveRx PathHunter D2 beta-arrestin, luminescence, 90 min; 100% = 57 uM dopamine signal. activation, % (no concentration beside the values). 360,000 tested, 0.084% active. AID 624465, 2012; in the data active = activation above about 40%; inconclusive = about 15% to 40%; inactive = below about 15%; also: compound concentration not given in the record; the text of the record calls up to 30% inactive
Target sequence (P14416 whole entry, looked up): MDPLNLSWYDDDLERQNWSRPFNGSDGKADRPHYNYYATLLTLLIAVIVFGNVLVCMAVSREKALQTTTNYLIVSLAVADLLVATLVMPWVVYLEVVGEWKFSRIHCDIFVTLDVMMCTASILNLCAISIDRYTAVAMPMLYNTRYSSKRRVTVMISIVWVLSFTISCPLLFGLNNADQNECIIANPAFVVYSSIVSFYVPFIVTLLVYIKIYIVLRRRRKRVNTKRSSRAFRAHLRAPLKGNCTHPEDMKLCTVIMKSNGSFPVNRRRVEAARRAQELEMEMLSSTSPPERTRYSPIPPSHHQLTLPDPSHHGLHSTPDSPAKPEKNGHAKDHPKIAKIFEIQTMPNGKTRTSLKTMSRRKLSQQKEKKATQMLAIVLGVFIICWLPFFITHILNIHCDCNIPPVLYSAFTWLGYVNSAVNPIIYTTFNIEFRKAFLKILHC
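DiscoveRx PathHunter D2 beta-arrestin cells (2,100/well) attached overnight, then compound-stimulated 90 min at 37 C in HBSS/10 mM HEPES/0.1% Tween-20 buffer; beta-galactosidase complementation read by luminescence after 1 h at ambient temperature. Dopamine 57 uM final (EC100) as control.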
Menin-MLL FL inh: qHTS Assay for Inhibitors Targeting the Menin-MLL Interaction in MLL Related Leukemias: Competition With Fluorescein Labeled MLL-derived Peptide; Fluorescence polarization, fluorescein-MLL peptide displacement from menin; FP activity change, % at 61.4 µM; 290,000 tested, under 10 active; AID 1766, 2009; inconclusive = falling polarisation curve, or a change in total fluorescence; inactive = total fluorescence flat and polarisation flat or rising; no compound was filed as active; the % refers to the polarisation; negative = inhibition;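 also: % of control where 0% means no effect; inhibitors lower the polarisation; unlabelled MLL peptide was the positive control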
gsp agonist: qHTS for Agonist of gsp, the Etiologic Mutation Responsible for Fibrous Dysplasia/McCune-Albright Syndrome: qHTS | gsp mutant cells, cAMP HTRF, 30 min; control for the full effect not named in the record | Potency, µM (titrated, usually from 76.9 µM), inactives show at the highest dose activation (cAMP increase), actives largely listed as activators | 340,000 tested, 0.13% active | AID 624287, 2012; active = well fitted activation curve with a large enough effect; inconclusive = small, poorly fitted or top-dose-only effect, or another doubt; inactive = no such curve, though single readings can be large or run the other way; cell line not stated here;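 also: phosphodiesterase inhibitor Ro 20-1724 added with compounds to block cAMP breakdown; potency is read from the fitted curve at half-maximal effect; nearly all actives have a fitted effect of over 60% in size; about a fifth of the inactives were tested at one dose only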
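Cells stably selected in G418 were plated at 2000/well, grown 16-24 hr, then given compounds in DMSO with the PDE inhibitor […] (300 uM solution added) for 30 min at 37C; cAMP was read by HTRF.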
Sfp PPTase inh: qHTS Assay for Inhibitors of Bacillus subtilis Sfp phosphopantetheinyl transferase (PPTase). 4'-phosphopantetheinyl transferase ffp (Bacillus subtilis), Q9F4F7. Biochemical Sfp PPTase activity, qHTS. Potency, µM, for inactives: max response, negative = inhibition, actives largely listed as inhibitors. 310,000 tested, 3.5% active. AID 1490, 2009; active = well fitted inhibition curve with a large enough effect; inconclusive = small, poorly fitted or top-dose-only effect, or another doubt; inactive = no such curve, though single readings can be large or run the other way;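 also: the enzyme is Sfp with the accession as filed and its product quenches rhodamine fluorescence; potency is read from the fitted curve at half-maximal effect; 0% = enzyme reaction without inhibitor and -100% = no enzyme wells; top concentration of the series not given in the record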
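Sfp 15 nM + cpd, 15 min RT; start w/ rhodamine-CoA 5 uM, BHQ-2-YbbR 12.5 uM (final); 50 mM Hepes pH 7.6, 10 mM MgCl2, 0.01% NP-40, 0.01% BSA; read 525/598 nm at 0 and 30 min.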
gsp antag: qHTS for Antagonists of gsp, the Etiologic Mutation Responsible for Fibrous Dysplasia/McCune-Albright Syndrome: qHTS | gsp-mutant cells, cAMP HTRF, 30 min; control for the full effect not named in the record | Potency, µM (doses to about 76.9 µM), for the others: top-dose activity change, negative = inhibition, hits mostly inhibitors | 340,000 tested, 0.4% active | AID 624288, 2012; active = falling curve of any shape with a large fitted effect; inconclusive = falling curve, mostly with a smaller effect; inactive = flat or rising curve; cell line not stated here;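 also: intracellular cAMP measured with PDE inhibitor Ro 20-1724 present during compound exposure; potency is read from the fitted curve at half-maximal effect; % is scaled to controls: 0 for no effect and ±100 for the full control effect; nearly all actives have a fitted effect of over 65% in size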
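G418-selected cells were plated in DMEM/10% FBS for 16-24 h at 37C, then treated with compounds plus the PDE inhibitor […] (300 uM solution added) for 30 min at 37C. Intracellular cAMP was measured by HTRF after 30 min lysis at room temperature.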
PINK1 expr mod: A Quantitative High throughput Screen to Identify Chemical Modulators of PINK1 Expression | PINK1 immunofluorescence, high-content cytometry, 24 h | Potency, µM (top dose mostly 76.6 µM), inactives show at the highest dose activation (PINK1 increase), hits mostly activators | 410,000 tested, 0.2% active | AID 624263, 2012; active = well fitted activation curve with a large enough effect; inconclusive = small, poorly fitted or top-dose-only effect; inactive = flat fitted curve, though single readings scatter; cell line not stated here;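 also: potency is read from the fitted curve at half-maximal effect; % of control where 0% means no effect; nearly all actives have a fitted effect of over 65% in size; a mitochondrial uncoupler was the plate control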
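PINK1 protein level read as immunofluorescence by microplate cytometer in a fixed, stained stable cell line after 24 h exposure to five compound concentrations, with CCCP as control.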
ClpP mod: qHTS Assay for Activators of ClpP; Potency, µM (top dose mostly 57.5 µM), inactives show at the top dose activity change, negative = active; purified B. subtilis ClpP, FRET peptide cleavage, 20 min; 340,000 tested, 1.9% active; ATP-dependent Clp protease proteolytic subunit (Bacillus subtilis (strain 168)), P80244; active = well fitted falling curve with a large enough effect; inconclusive = small, poorly fitted or top-dose-only effect; inactive = no such curve, though single readings can be large or run the other way; also: potency is read from the fitted curve at half-maximal effect; the source files actives as falling curves though it sought activators and does not explain the sign; nearly all actives have a fitted effect of over 65% in size; many hits overshoot -100%
Target sequence (P80244 whole entry, looked up): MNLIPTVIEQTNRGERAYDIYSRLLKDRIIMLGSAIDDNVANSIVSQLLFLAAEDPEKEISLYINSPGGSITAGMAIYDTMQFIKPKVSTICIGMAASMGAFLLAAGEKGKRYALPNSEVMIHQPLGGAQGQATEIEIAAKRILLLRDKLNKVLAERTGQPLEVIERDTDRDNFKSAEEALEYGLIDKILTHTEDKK
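Purified B. subtilis ClpP, 10 microg/mL final in Tris/HCl pH8 with KCl, BSA, glycerol and Tween-20, cleaved an Abz/nitrotyrosine-quenched decapeptide. Fluorescence (ex 320, em 430) was read at 0 and 20 min at room temperature. Delta was normalized to 5.8 microM ADEP and DMSO/no-enzyme controls.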
Active calls of the source: *; ? = inconclusive; . = no result given; & = joins results of further samples; [ ] = another dose, or the depositor's remark.

SMILES	D2 agonist	Menin-MLL FL inh	gsp agonist	Sfp PPTase inh	gsp antag	PINK1 expr mod	ClpP mod
O=C(Nc1nnc(SCc2ccc(Cl)cc2Cl)s1)C1COc2ccccc2O1 (stereo unspecified)	-2.1	2.8	?	7.5%	?	23.6%	-0.5%
COc1cc(Cl)c(C)cc1NC(=O)c1ccc(NS(=O)(=O)c2ccc(F)c(F)c2)cc1	-1.0	3.5	-4.9%[15.4 µM]	21.5%	?	5.0%	.
O=C(CN1C(=O)NC2(CCCC2)C1=O)Nc1nc(-c2ccccc2)cs1	5.0	.	-21.7%[15.4 µM]	.	-13.5%	?	.
Cc1noc(C)c1COC(=O)COc1cccc2c1OC(C)(C)C2	-2.6	1.4	6.8%	8.0%	-0.5%	1.9%	-2.7%
O=C(C(=O)N1CCN(c2ccccc2F)CC1)c1c[nH]c2ccccc12	-2.5	-2.2	3.7%[15.4 µM]	7.9%	8.2%	0.5%	.
CC1CCCCC1NC(=O)COC(=O)c1ccc(S(=O)(=O)NCc2ccco2)cc1 (stereo unspecified)	-2.2	3.2	0.0%	-4.2%	-0.6%	-2.6%	-2.2%
C=CC[C@H](CC(=O)OC(C)(C)C)C(=O)OC[C@H]1CCCN1C(=O)[C@@H](CC=C)CC(=O)N(CCO)Cc1ccccc1	-2.8	.	?	.	-12.1%	2.5%	1.1%
COc1cccc(C(=O)NC(=O)Nc2cc(C)on2)c1	-2.1	2.4	-3.4%[15.4 µM]	4.4%	7.9%	6.4%	.
O=C(c1ccc(Cl)s1)N1CCCC(N2CCN(c3ccc(F)cc3)CC2)C1 (stereo unspecified)	-4.4	2.2	0.2%	12.7%	-16.0%	-0.6%	-1.7%
CCCCC[n+]1ccn(-c2nc3ccccc3nc2[N-]S(=O)(=O)c2ccccc2)c1	-4.1	0.1	-5.2%[15.4 µM]	35.5µM*	-7.9%	3.6%	-2.8%
O=C1c2ccccc2C(=O)N1CCC(=O)N1CCCc2ccccc21	-1.2	0.6	-66.5%[inhibitor]	5.4%	1.3%	5.4%	1.0%
COc1ccc(NC(=O)c2ccco2)cc1NC(=O)c1ccc(C#N)cc1F	-3.3	.	12.8%	6.4%	2.2%	7.1%&7.0%	4.8%&4.4%
NC(=O)NCC(c1ccccc1)C1CCCCC1 (stereo unspecified)	-3.9	3.3	22.2%	10.7%	3.3%	-0.6%	1.1%
CCOc1ccc(NC(=O)C2C(c3ccccc3)C2(Cl)Cl)cc1 (stereo unspecified)	-2.6	-0.7	5.2%	16.3%	-17.9%	14.7%	.
CCOC(=O)CC(=O)CSc1nc2nc(C)cc(C)n2n1	-0.1	3.6	14.9%	56.2µM*	8.0%	.	-1.5%
O=C(Nc1ccc(NC(=O)c2ccco2)cc1)c1ccc2c(c1)OCCO2	-5.2	0.6	-3.2%[15.4 µM]	-6.4%	-0.7%	12.0%	.
COc1ccc(-c2sc3ccc(N4CCOCC4)cc3c2-c2ccc(O)cc2)cc1	-1.9	.	.	.	-17.0%	0.3%	-12.9%
COc1cc(C(C(=O)NC2CCCC2)N(Cc2ccco2)C(=O)c2snc(C(N)=O)c2N)cc(OC)c1OC (stereo unspecified)	-6.6	0.5	-3.0%[15.4 µM]	-0.3%	-0.5%	0.6%	-2.2%
O=[N+]([O-])c1ccc(Cl)c(/C=N/N2CCN(Cc3ccccc3Cl)CC2)c1	-0.9	0.2	10.6%	5.4%	-6.7%[15.4 µM]	1.4%	-0.7%
CN(C)c1nc(=NCc2cccs2)ss1	-18.1	.	13.9%	.	-6.8%	0.0%	1.1%
Cc1ccc(CC(=O)NNC(=O)c2cccs2)cc1C	-0.8	.	2.7%[15.4 µM]	.	13.8%	2.8%	.
CC1CCCC(NS(=O)(=O)c2cc(Br)cnc2N)C1C (stereo unspecified)	0.8	.	29.9%	6.3%	0.3%	11.5%	.
COc1ccc(N2CC(C(=O)Nc3nc4ccccc4s3)CC2=O)cc1 (stereo unspecified)	-6.0	-1.3	16.4%	-3.5%	-17.4%	-1.8%	-0.5%
COc1ccc(C(=O)Nc2ccc(NC(=O)C3CC3)cn2)cc1	-1.3	-0.4	2.8%[15.4 µM]	8.9%	-5.1%	8.6%	.
COc1ccc2cc(C(=O)C3CCCN(C(=O)CSc4nnc(C)o4)C3)ccc2c1 (stereo unspecified)	7.0	-0.9	-21.4%	-6.2%	-27.3%	-0.1%	.
OCCC1CN(Cc2cnc(-c3ccccc3)s2)CCN1C1CCCC1 (stereo unspecified)	-3.1	-1.2	4.7%[15.4 µM]	17.8%	-4.5%	-1.2%	.
O=C(Nc1cc(C(F)(F)F)ccc1N1CCOCC1)C1Cc2ccccc2CN1C(=O)c1ccco1 (stereo unspecified)	-6.7	3.3	1.0%	28.2µM*	-16.5%	0.3%	1.6%
Cc1ccc(NC(=O)CSCc2c(C)noc2C)cc1C	-4.8	-1.2	13.0%	0.4%	1.4%	0.4%	-3.4%
COC(=O)c1cc(Cl)nc2ccccc12	0.2	-0.4	-20.0%[15.4 µM]	16.9%	2.0%	-1.1%	-3.7%
CC1CCCC(C)N1S(=O)(=O)c1ccc(S(=O)(=O)NCCc2ccncc2)cc1 (stereo unspecified)	1.8	0.2	-21.3%	4.8%	-2.8%	-0.9%[38.3 µM]	-1.5%
COc1cc(OC)c(OC)cc1/C=C/c1ccnc2ccccc12	3.8	.	0.6%	.	4.7%	?	2.5%&-6.5%
Cc1c(NC(=O)C(=O)/C=C(\O)c2ccc(Br)cc2)c(=O)n(-c2ccccc2)n1C	-1.4	?	-6.2%	-6.2%	-14.9%	-0.8%	1.2%
COC(=O)c1ccc(Nc2nnc(-c3ccc(C)c(S(=O)(=O)NCC4CCCO4)c3)c3ccccc23)cc1 (stereo unspecified)	-9.6	0.0	19.4%[15.4 µM]	8.7%	?	5.8%	-1.5%
COc1cc2sc3cc(NCc4ccc5c(c4)OCO5)ccc3c(=O)c2cc1OC	0.0	.	.	.	0.5%	2.8%	?
COc1ccc(-c2cnc(N)nc2-c2ccc(OC)cc2)cc1	0.4	6.7	?	8.9%	?	-1.8%	-6.8%
CN(Cc1ccccc1)C(=O)c1cccnc1	0.6	2.6	1.0%[15.4 µM]	21.0%	7.5%	-0.7%	-13.2%
O=C(CSCc1ccc([N+](=O)[O-])cc1)N/N=C/c1cccnc1	-1.5	-0.4	-2.2%[15.4 µM]	-11.4%	8.5%	0.1%	.
CCCCn1c(N)c(N(CC(C)C)C(=O)c2cc(C)oc2C)c(=O)[nH]c1=O	-6.3	.	0.3%[15.4 µM]	10.8%	-2.2%	0.3%	-0.5%
COc1cc(S(=O)(=O)N2CCCCCC2)ccc1-n1cnnn1	-0.9	1.4	8.3%	44.7µM*	-3.0%	.	-0.4%
Clc1ccccc1Nc1nc(NCc2cccs2)nc2ccsc12	3.0	.	.	.	.	4.9%	4.6%
CCC(=O)N1CCc2cc(S(=O)(=O)NCCC(=O)N3CCN(c4cccc(OC)c4)CC3)ccc21	-5.1	-0.8	22.9%	7.1%	-6.1%	-0.3%	-4.2%
CC1CN(/C=C/C=O)C(C)CC1OC(=O)c1ccccc1 (stereo unspecified)	-3.8	0.4	16.0%[15.4 µM]	4.9%	7.5%	0.8%	-1.5%
CCC/C=N/NC(=O)c1[nH]c2c([N+](=O)[O-])cccc2c1C	-0.3	0.4	-14.9%	4.6%	4.6%	11.2%	.
Oc1ccc(N=Nc2c(O)ccc3ccccc23)cc1	-6.6	0.7	-5.2%	?	-15.6%	-0.3%[38.3 µM]	-1.7%
O=C(OCCN1C(=O)c2ccccc2C1=O)c1cccs1	2.1	-0.9	-13.5%	20.1%	0.2%	-5.2%[38.3 µM]	1.2%
Cc1ccc(NC(=O)Cn2nnc3ccccc3c2=O)cc1	-3.2	-1.5	11.2%[15.4 µM]	-6.0%	-7.7%	2.1%	0.1%
CCc1c(C)nc2ncnn2c1NCCc1ccc(Cl)cc1	-1.1	-0.1	35.4%[15.4 µM]	12.5%	-87.1%	1.8%	.
Cc1cc(C)n2nc(CNS(=O)(=O)c3ccc([N+](=O)[O-])cc3)nc2n1	7.6	.	11.9%	16.9%	-1.1%	-0.2%	0.7%
COc1ccc(CC(NC(C)=O)C(=O)N2CCN(C(=O)Nc3cccc(F)c3)CC2)cc1OC (stereo unspecified)	-0.3	6.6	25.9%	22.3%	-21.6%	-0.1%	0.6%
C#Cc1ccc([C@@H]2C=C(C(=O)N3CCN(Cc4ccc5c(c4)OCO5)CC3)O[C@H](OCCCCO)C2)cc1	-0.1	-2.4	.	-4.4%	-13.1%	-0.5%	-5.7%
CCc1nc2ccc(C(=O)NCCc3ccccn3)cn2c1N(C)CCC(C)C	-2.7	.	.	.	.	-0.9%	-14.0%
O=C(COc1ccccc1Cl)N1N=C(c2cccs2)CC1c1ccco1 (stereo unspecified)	1.4	.	14.4%	.	?	5.2%	4.1%
O=C(NCc1ccccn1)Nc1cc(Cl)cc(Cl)c1	0.7	0.6	-9.2%	10.7%	5.7%	2.2%	-5.0%
CCc1ccc(-c2n[nH]c(=O)c3ccccc23)cc1	3.2	-17.8	-16.9%	-4.3%	-3.4%	3.2%	-4.2%
COc1cccc(-c2cnc(C(O)c3cc(C)cc(C)c3)[nH]2)c1 (stereo unspecified)	-3.5	.	.	.	.	0.1%	-3.1%
Nc1nc2ccccc2nc1N1CCCC1	-0.7	1.4	5.0%	23.1%	1.6%	0.2%[38.3 µM]	-7.0%
Cc1cc2ccccc2nc1SCC(=O)N1c2ccccc2CC1C (stereo unspecified)	1.1	0.9	-8.1%	-1.2%	-4.6%	-0.8%	-19.1%
